# Cruzain inh Det = qHTS Assay for Promiscuous and Specific Inhibitors of Cruzain (with detergent); purified cruzain, Z-FR-AMC fluorescence, 0.01% Triton; Cruzipain (Trypanosoma cruzi), P25779; Potency, µM, for the others: max response, negative = inhibition, usual class: inhibitors; 200,000 tested, 0.43% active; active = well fitted curve in the direction sought with a large enough effect; inconclusive = small, poorly fitted or top-dose-only effect, or another doubt; inactive = no such curve, though single readings can be large; an effect the other way counts as inactive or inconclusive;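 also: plate controls were neutral wells for no effect and buffer without enzyme for full effect; nearly all actives have a fitted effect of over 40% in size; top concentration of the series not given in the record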
# Target sequence (P25779 123-467 limits assumed): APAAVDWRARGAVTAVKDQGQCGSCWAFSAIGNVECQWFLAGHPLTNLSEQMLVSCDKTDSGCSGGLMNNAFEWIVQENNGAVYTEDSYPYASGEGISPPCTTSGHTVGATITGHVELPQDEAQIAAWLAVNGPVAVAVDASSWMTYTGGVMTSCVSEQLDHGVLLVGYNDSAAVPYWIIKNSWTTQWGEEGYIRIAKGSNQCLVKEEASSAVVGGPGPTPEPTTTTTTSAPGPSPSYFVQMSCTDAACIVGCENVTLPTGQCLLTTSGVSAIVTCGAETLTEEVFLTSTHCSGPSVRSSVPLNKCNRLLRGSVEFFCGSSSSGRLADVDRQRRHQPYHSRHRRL
#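 Z-FR-AMC hydrolysis (2 uM substrate) by cruzain (1.5 nM) monitored kinetically at ex 360/em 450 nm after 15 min room-temperature compound exposure; 0.01% Triton X-100, pH 5.5, 5 mM DTT.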
# MARV entry inh = qHTS for inhibitors of binding or entry into cells for Marburg Virus | Marburg virus pseudotyped entry inhibition, cell reporter; control for the full effect not named in the record; about a third of the inactives were read at about 46 µM | Potency, µM (top dose mostly 37.8 µM), for inactives: at the top dose activity change, negative = inhibition, hits mostly inhibitors | 300,000 tested, 1.8% active | AID 540276, 2011; active = well fitted inhibition curve with a large enough effect; inconclusive = small, poorly fitted or top-dose-only effect, or effect the other way; inactive = flat fitted curve, though single readings scatter; tested in HEK293 cells; about a fifth of its hits are not listed in these tables; also: % is scaled to controls: 0 for no effect and ±100 for the full control effect; luciferase read-out
# RE007 growth inh = qHTS Assay for Inhibitors of the HIV-1 protein Vpr. S. pombe RE007 Vpr strain, BacTiter-Glo ATP luminescence, 24 h; control for the full effect not named in the record. Potency, µM (highest dose often 92.2 µM), for the others: top-dose activity change, negative = less growth. 360,000 tested, 0.21% active. AID 651644, 2012; active = well fitted falling curve with a large enough effect; inconclusive = small, poorly fitted or top-dose-only effect; inactive = no such curve, though single readings can be large or run the other way;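 also: % is scaled to controls: 0 for no effect and ±100 for the full control effect; nearly all actives have a fitted effect of over 50% in size; the assay follows cell death caused by Vpr and the record does not say whether a fall means rescue or toxicity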
#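 Fission yeast strain RE007, carrying one chromosomally integrated HIV-1 vpr copy, was seeded at OD 0.01 in PMG+AL medium with 23 nL pinned compound. After 24 h at 30 °C and 99% humidity, viability was read by BacTiter-Glo luminescence.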
# 2A StopGo = High Throughput Screening for Foot and Mouth Disease Virus Antivirals; Potency, µM (top dose mostly 57.9 µM), without a hit: at the top dose signal change, negative = less light; human cells with a luciferase reporter of 2A StopGo recoding; control for the full effect not named in the record; AID 1159524, 2015; 410,000 tested, 1.2% active; active = well fitted falling curve with a large enough effect; inconclusive = small, poorly fitted or top-dose-only effect; inactive = no such curve, though single readings can be large or run the other way; tested in HEK293T cells; also: % is scaled to controls: 0 for no effect and ±100 for the full control effect; nearly all actives have a fitted effect of over 45% in size; luciferase light after 4 h
# SARS PLP yeast = qHTS of Yeast-based Assay for SARS-CoV PLP | S. cerevisiae expressing SARS-CoV PLpro, growth rescue; control for the full effect not named in the record | Potency, µM (doses to about 32.9 µM), for inactives: at the top dose activity, positive = growth rescue | 330,000 tested, 0.19% active | AID 485353, 2010; also: 0% is about no effect; nearly all actives have a fitted effect of over 55% in size; growth read by luminescence after 48 h
# LASV entry inh = qHTS for Inhibitors of binding or entry into cells for Lassa Virus; Lassa virus pseudotype entry inhibition, cell reporter; control for the full effect not named in the record; Potency, µM (doses to about 37.9 µM), inactives show at the top dose activity change, negative = inhibition, actives largely listed as inhibitors; 300,000 tested, 1.2% active; AID 540256, 2011; active means well fitted inhibition curve with a large enough effect; inconclusive means small, poorly fitted or top-dose-only effect, or effect the other way; inactive means flat fitted curve, though single readings scatter; tested in HEK293 cells; also: % is scaled to controls: 0 for no effect and ±100 for the full control effect; nearly all actives have a fitted effect of over 50% in size; luciferase read-out
# Cruzain noTriton = qHTS Assay for Promiscuous and Specific Inhibitors of Cruzain (without detergent); purified cruzain, Z-FR-AMC fluorescence, no detergent; Cruzipain (Trypanosoma cruzi), P25779; 200,000 tested, 2.3% active; Potency, µM, without a hit: max response, negative = inhibition, usual class: inhibitors; active = well fitted curve in the direction sought with a large enough effect; inconclusive = small, poorly fitted or top-dose-only effect, or another doubt; inactive = no such curve, though single readings can be large; an effect the other way counts as inactive or inconclusive;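 also: plate controls were enzyme without inhibitor for no effect and buffer without enzyme for full effect; nearly all actives have a fitted effect of over 40% in size; top concentration of the series not given in the record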
#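 Detergent-free condition (0.00005% Triton X-100) in acetate buffer pH 5.5 with DTT. 1.5 nM enzyme and compound were pre-mixed 15 min, then 2 uM Z-FR-AMC substrate added; reaction progress from fluorescence change between first and third reads (60 s).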
# NS1 inh = qHTS Assay for Inhibitors of Influenza NS1 Protein Function | S. cerevisiae slowed by influenza A NS1, growth recovery by OD600 | Potency, µM (doses to about 46.1 µM), inactives show at the highest dose activity, positive = more growth | 270,000 tested, 0.4% active | AID 2326, 2010; also: actives are rising curves; nearly all actives have a fitted effect of over 50% in size
#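 Read-out: OD600 growth recovery of NS1-expressing budding yeast. Cells grown overnight at 30C in -URA glucose medium, washed, resuspended and diluted 1:100 in 2% galactose assay medium, pH 6.0. Same strain lacking NS1 served as positive control.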
# The depositor's hits bear a star; ? = inconclusive; · = not tested or not shown; & = joins results of further samples; [ ] = another dose, or the depositor's remark. Unless noted, calls follow the shape of the dose curve; as a rule, active means well fitted rising curve with a large enough effect; inconclusive means small, poorly fitted or top-dose-only effect; inactive means no such curve, though single readings can be large or run the other way. Potency is read from the fitted curve at half-maximal effect. This is a random part of the collection; any-hit rate near 4.6%.
SMILES,Cruzain inh Det,MARV entry inh,RE007 growth inh,2A StopGo,SARS PLP yeast,LASV entry inh,Cruzain noTriton,NS1 inh
CCN(CC)c1ccc(/C=N/NC(=O)c2cnccn2)cc1,·,?,27%,31%[activator],1%,?,·,·
CNC(=O)Cn1ncc2c3ccccc3n(C)c2c1=O,·,5%,12%,-13%,0%,·,·,1%
CSc1ccccc1C(=O)NCC1CCCO1 (stereo not drawn),-7.3%,-2%,-4%,2%,8%,-4%,-1%,-3%
COC(=O)c1cc(OC)c(OC)cc1NC(=O)c1cccnc1,-2.5%,·,·,·,12%,·,-5%,3%
CC1CCc2ccccc2N1C(=O)c1cccs1 (stereo not drawn),3.9%,-1%[46.1 µM],10%,-27%,-3%,6%,5%,-33%
O=C(Cn1c(=O)nc(-c2ccccc2)c2ccccc21)NCc1ccc(Cl)cc1,-1.4%,·,·,-9%,·,?,-5%,·
COc1ccc(NC(=O)CCn2c(=S)[nH]c3ccccc3c2=O)cc1,·,?,-3%,-6%,?,-22%[46.1 µM],·,7%
CCn1c(=N)n(CC(=O)c2ccc(Br)s2)c2ccccc21,·,·,-3%,-8%,0%,·,·,-2%
Cc1cc(/C=C2\NC(=O)NC2=O)c(C)n1-c1cccnc1,·,-3%[46.1 µM],6%,31%[activator],2%,-17%[46.1 µM],·,5%
Cc1cc[n+](CC(=O)c2ccccc2)c2ccccc12,·,?,3%,-8%,2%,?,·,12%
C=CCOc1ccccc1CNc1cccc(F)c1,-5.2%,-1%,15%,-9%,7%,4%,4%,7%
CCOC(=O)CSc1nc2c(sc3cccc(F)c32)c(=O)n1Cc1ccc(OC)cc1,1.6%,·,·,-16%,·,-4%[46.1 µM],12%,·
CCCCNc1nc2c(-c3cccc(Br)c3)nnn2c2ccccc12,2.7%,10%[46.1 µM],·,4%,·,1%[46.1 µM],6%,·
O=C(Cc1ccc(Cl)cc1)N/N=C/c1ccncc1,·,-22%[46.1 µM],9%,11%,0%,9%[46.1 µM],·,-3%
COc1cc(/C=N/O)cc(Br)c1OC,-0.9%,0%,?,-15%,1%,-1%,-15%,0%
O=C(Cc1c(F)cccc1Cl)NNC(=S)Nc1ccc(S(=O)(=O)Nc2ncccn2)cc1,·,·,-7%,-14%,0%,·,·,4%
Cc1cccc(Cn2cc3c(=O)n(Cc4cccc(F)c4)nc-3c3ccccc32)c1,·,9%[46.1 µM],-14%,1%,2%,8%,·,2%
COc1ccc(C2SCCN2S(=O)(=O)c2ccc(NC(C)=O)cc2)cc1OC (stereo not drawn),·,-27%[46.1 µM],8%,?,15%,2%,·,-7%
CC(=O)c1cccc(Nc2nc(-c3sc(N)nc3C)cs2)c1,·,11%,-4%,?,-4%,?,·,23%
COc1ccc(C2SCC(=O)N2c2nnc(C34CC5CC(CC(C5)C3)C4)s2)cc1 (stereo not drawn),-5.4%,-3%,-3%,10%,-2%,-24%,?,16%
Cn1c(SCc2ccccc2)nnc1C1CCCNC1 (stereo not drawn),-4.8%,0%,24%,2%,2%,?,-4%,6%
CSc1oc(-c2ccccc2)nc1S(=O)(=O)c1ccc(C)cc1,-0.6%,-1%,5%,5%,-2%,?,-4%,-6%
O=C(NCCc1ccccc1)NC(Cc1ccccc1)C(=O)O (stereo not drawn),·,12%[46.1 µM],5%,-15%,0%,-10%,·,1%
O=C(/C=C/c1ccc([N+](=O)[O-])cc1)NC1CC2CCC1C2 (stereo not drawn),·,5%[46.1 µM],-2%,30%,-9%,-2%,·,·
CC(C)C12CN3CCN(CC(C3)C1O)C2 (stereo not drawn),2.1%,0%,6%,-11%,·,0%,-8%,7%

# Remaining list, next part
SMILES,Cruzain inh Det,MARV entry inh,RE007 growth inh,2A StopGo,SARS PLP yeast,LASV entry inh,Cruzain noTriton,NS1 inh
COc1ccc(/C=C2\SC(=S)N(CCCC(=O)Nc3ccc(O)cc3)C2=O)cc1,·,·,-7%,2%,0%,·,·,3%
O=C(Nc1c(S(=O)(=O)c2ccc(Cl)cc2)csc1Br)c1ccccc1Cl,·,-14%[46.1 µM],1%,-4%,1%,9%,·,4%
COc1ccc(N(C(=O)c2ccco2)C(C(=O)NC2CCCC2)c2cccs2)c(OC)c1 (stereo not drawn),·,-26%[46.1 µM],5%,4%,1%,?,·,9%
CCCOc1cccc(C2c3c(-c4ccccc4O)n[nH]c3C(=O)N2Cc2ccco2)c1 (stereo not drawn),-12%,?,·,-20%,·,?,?,·
Fc1ccc(NC(=S)Nc2cccnc2)cc1Cl,·,·,1%,7%,-3%,·,·,-60%
CCc1nnc(NC(=O)c2nc(SCc3cccc(C)c3)ncc2Cl)s1,-5.2%,5%[46.1 µM],·,-2%,·,5%[46.1 µM],-11%,·
Cc1ccc(S(=O)(=O)N2CCOCC2)cc1C(=O)NCCCn1ccnc1,3.8%,18%,-6%,-2%,7%,1%,-12%,-3%
O=c1sc(N2CCN(c3ccccc3F)CC2)nc2ccsc12,-7.1%,·,-3%,1%,2%,·,?,3%
O=C(CC1C(=O)NCCN1Cc1cccc(F)c1F)NCCCC1CCCC1 (stereo not drawn),·,·,-5%,17%,-4%,·,·,-1%
CCCN(CCC)C(=O)c1cn(C)c2ccc(S(=O)(=O)N3CCCC3)cc2c1=O,·,·,10%,23%,1%,·,·,2%
CCOC(=O)N1CCC(NC(=O)Cn2nc(Cc3ccncc3)c3ccccc3c2=O)CC1,-0.5%,3%,8%,-6%,-3%,·,11%,-1%
O=C(CCN1CCN(c2ccc([N+](=O)[O-])cc2)CC1)c1ccc(Cl)cc1,·,3%[46.1 µM],?,15%,-1%,5%[46.1 µM],·,6%
CCOc1cc2c(cc1OCC)-n1cccc1C(c1ccc(C)cc1C)NC2 (stereo not drawn),·,?,1%,?,-2%,?,·,-3%
Cc1nn(-c2ccccc2)c(C)c1C(=O)OCC(=O)NCc1ccco1,-1.5%,-22%[46.1 µM],0%,-19%,-4%,1%,-9%,-5%
CCc1nnc(NC(=O)c2cccc(S(=O)(=O)N3CCc4ccccc43)c2)s1,3.9%,3%&3%,3%,-23%,0%,12%,-26%,2%
CCOC(=O)Cn1cc([N+](=O)[O-])nc1[N+](=O)[O-],-3.4%,?,-9%,?,9%,?,2%,-18%
COc1ccc(-c2ccnc3nc(N4CCOCC4)nn23)cc1,-18%,-2%,2%,10%,2%,-2%,5%,12%
Cc1cc(C)c2c(=O)[nH]n(C3CCOC(C)(C)C3)c2n1 (stereo not drawn),-3.5%,·,-4%,-9%,4%,·,5%,2%
CN(C)C(=O)c1ccc(NC(=O)COc2cccc3c2OC(C)(C)C3)cc1,·,-1%,5%,-13%,-2%,5%,·,·
Cc1cc(=O)n2[nH]c(NCc3c(F)cccc3Cl)nc2n1,·,5%[46.1 µM],0%,11%,-1%,-7%,·,3%
O=C(CSc1ccc2nnc(-c3cccnc3)n2n1)N1CCc2ccccc21,-0.3%,0%,·,·,-4%,·,-3%,-6%
COc1cc2c(cc1OC)C(c1ccccc1)CN(C)CC2 (stereo not drawn),1.9%,?,·,·,·,·,-5%,-2%
O=C(NCC(c1cccs1)N1CCOCC1)c1cn(-c2ccccc2)nc1-c1ccccc1 (stereo not drawn),·,13µM*,13%,28%,2%,0%,·,·
COc1ccc(/C=N/n2c(C)cc(C)cc2=O)cc1,·,16%[46.1 µM],8%,24%,0%,?,·,4%
CCCCNc1oc(-c2ccc(COc3ccccc3C)o2)nc1C#N,-4.0%,?,·,-6%,·,-2%[46.1 µM],?,·

# New compounds follow:
SMILES,Cruzain inh Det,MARV entry inh,RE007 growth inh,2A StopGo,SARS PLP yeast,LASV entry inh,Cruzain noTriton,NS1 inh
O=C(CSCc1ccccc1)NNC(=S)Nc1cccc(Cl)c1Cl,-2.4%,-4%,-4%,16%,24%,-7%,0%,-1%
CCOC(=O)c1c(C)c(C(=O)N2CCCCCC2)c(C)n1C,3.8%,-13%,-11%,10%,-4%,11%,-4%,-2%
CCOC(=O)c1n[nH]c2ccccc12,-1.3%,-16%&-16%,2%,-17%,-3%,15%,7%,-12%
Cc1occc1C(=O)N1CCN(c2ccc(Cl)cc2)CC1,·,-7%,1%,?,-11%,-2%,·,-20%
C/C=C(\C)C(=O)Nc1cccc(C2=NOC3(C2)C[C@H](C(N)=O)N(C(=O)CC#N)C3)c1 (stereo partly drawn),·,·,10%,6%,0%,·,·,3%
COc1ccc(S(=O)(=O)N2CCOC2CNC(=O)C(=O)NCCCN2CCOCC2)cc1C (stereo not drawn),·,?,6%,-27%,1%,20%[46.1 µM],·,0%
CCCCN(C(=O)c1cc2c(s1)CCC2)c1c(N)n(CC(C)C)c(=O)[nH]c1=O,·,0%,5%,-10%,-2%,7%,·,·
CCOC(=O)c1ccc(NC(=O)C(CC)Sc2nnc3c4ccccc4n(C)c3n2)cc1 (stereo not drawn),-2.2%,?,·,-14%,·,4%[46.1 µM],?,·
Cc1ccc(N(C(=O)c2ccccn2)C2(C(=O)NC3CCCC3)CCCCC2)cc1,5.5%,-23%,16%,0%,-5%,-1%,9%,-7%

# Single records, from the list above. Values in the order: Cruzain inh Det	MARV entry inh	RE007 growth inh	2A StopGo	SARS PLP yeast	LASV entry inh	Cruzain noTriton	NS1 inh
# O=C(CSCc1ccccc1)NNC(=S)Nc1cccc(Cl)c1Cl is entered as -2.4%	-4%	-4%	16%	24%	-7%	0%	-1%
# COc1ccc(S(=O)(=O)N2CCOC2CNC(=O)C(=O)NCCCN2CCOCC2)cc1C (stereo not drawn) is entered as ·	?	6%	-27%	1%	20%[46.1 µM]	·	0%
# COc1ccc(-c2ccnc3nc(N4CCOCC4)nn23)cc1 is entered as -18%	-2%	2%	10%	2%	-2%	5%	12%
